KAT2A inh: qHTS Assay for Inhibitors of GCN5L2; Histone acetyltransferase KAT2A (Homo sapiens), Q92830; GCN5L2 HAT assay, ThioGlo1 CoA-SH fluorescence; Potency, µM (highest dose often 58.9 µM), for inactives: at the highest dose activity change, negative = inhibition, actives largely listed as inhibitors; actives 0.21% (n = 390,000); AID 504327, 2011; active = well fitted inhibition curve with a large enough effect; inconclusive = small, poorly fitted or top-dose-only effect, or another doubt; inactive = no such curve, though single readings can be large or run the other way
Target sequence (Q92830 whole entry, looked up): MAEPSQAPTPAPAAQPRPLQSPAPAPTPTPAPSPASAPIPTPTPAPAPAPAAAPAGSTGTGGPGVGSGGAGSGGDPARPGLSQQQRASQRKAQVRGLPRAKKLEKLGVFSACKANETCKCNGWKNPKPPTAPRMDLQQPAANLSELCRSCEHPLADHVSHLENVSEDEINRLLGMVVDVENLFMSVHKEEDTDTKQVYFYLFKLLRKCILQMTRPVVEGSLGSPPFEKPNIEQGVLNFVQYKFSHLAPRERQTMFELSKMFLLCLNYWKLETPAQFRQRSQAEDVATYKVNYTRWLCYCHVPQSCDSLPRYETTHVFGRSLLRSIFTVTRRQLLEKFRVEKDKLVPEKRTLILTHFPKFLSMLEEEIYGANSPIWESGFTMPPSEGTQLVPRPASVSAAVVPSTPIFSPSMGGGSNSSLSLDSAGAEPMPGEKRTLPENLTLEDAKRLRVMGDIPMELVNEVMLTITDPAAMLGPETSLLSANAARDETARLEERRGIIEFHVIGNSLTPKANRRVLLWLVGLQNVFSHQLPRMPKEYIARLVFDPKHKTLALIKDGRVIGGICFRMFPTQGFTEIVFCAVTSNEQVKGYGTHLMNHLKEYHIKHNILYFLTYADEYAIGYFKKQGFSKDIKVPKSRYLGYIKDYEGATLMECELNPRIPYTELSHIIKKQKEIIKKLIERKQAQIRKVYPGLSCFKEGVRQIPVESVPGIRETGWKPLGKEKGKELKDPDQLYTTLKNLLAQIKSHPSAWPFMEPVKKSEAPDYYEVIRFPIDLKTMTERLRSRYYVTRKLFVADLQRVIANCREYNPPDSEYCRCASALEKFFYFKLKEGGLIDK
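qHTS, 1536-well. 20nM enzyme, pH 7.5 HEPES/EDTA/Tween-20 buffer; 15 min compound preinc., RT. Start: 75uM H3(1-25), 70uM AcCoA, 50uM ThioGlo1. Read Ex340/Em540 at t=0 (autofluorescence flag) and t=20 min.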
* marks the source's active call; other numbers are inactive results; ? = inconclusive; & = joins results of further samples. % is set by controls: 0 for no effect and ±100 for the full control effect; potency is the fitted concentration of half-maximal effect.

KAT2A inh,Structure
1.0%,Cc1nc(NC(=O)c2cccs2)ccc1Br
-7.3%,CC(C)(C)c1ccc(C(=O)NC(=O)CSc2n[nH]c(N)n2)cc1
-2.9%,Cc1ccc(NC(=O)c2cnc(SCC(=O)N3CCOCC3)n(C)c2=O)cc1C
-4.5%,Cc1ccc(-n2c(=O)c3ccccc3n(CC(=O)C(C)(C)C)c2=O)cc1
-8.3%,CC(=O)N(Cc1cccs1)Cc1cc2cc(C)c(C)cc2nc1Cl
-3.1%,CCCOc1cccc(C(=O)Nc2cccnc2)c1
0.0%,CCCn1c2c(c(O)c(C(=O)Nc3nc4ccccc4s3)c1=O)CCCC2
-5.6%,Cc1ccc(N(CC(O)CN2CCCCC2)S(=O)(=O)c2ccccc2)cc1 (stereo unspecified)
2.0%,COC(=O)c1cnn(-c2cc(Oc3cccc(C)c3)ncn2)c1N
-1.0%,C=CCn1c(=N)n(CC(=O)O)c2ccccc21
-1.6%,CCN(CC)S(=O)(=O)c1ccc(NC(=O)COC(=O)CCc2cc(OC)c(OC)c(OC)c2)cc1
-4.0%,COc1ccc(OC)c2[nH]c(=O)c(CCNC(=O)C3CCCCC3)cc12
-2.0%,Cn1c(CC(=O)Nc2ccccc2F)nnc1SCC(=O)N1CCOCC1
-1.0%,CCc1cccc(CC)c1NC(=O)CN1C(=O)C(=O)c2ccccc21
-2.5%,CN(C)c1ccc(C=C2C(=O)OC3(CCCC3)OC2=O)cc1
-3.1%,CCC/C(=N\NC(=O)c1ccc(CSc2nncn2C)cc1)c1ccccc1
-1.2%,CN(CCc1ccccn1)C1CC(=O)N(c2ccc(Cl)cc2)C1=O (stereo unspecified)
-1.5%,COc1nc(N/N=C/c2ccccc2F)nc(N2CCCCC2)n1
-4.2%,CN(C(=O)c1ccccc1OCc1ccc(F)cc1)c1c(N)n(Cc2ccccc2)c(=O)[nH]c1=O
-8.4%,S=c1[nH]nc(-c2ccccc2Cl)n1Cc1ccccc1
-9.7%,CC(=O)Nc1cccc(C(=O)NCC2(N3CCCCC3)CCCCC2)c1
-0.6%,CC1(c2nnc(-c3ccc(Cl)cc3)o2)CC(c2ccncc2)=NO1 (stereo unspecified)
-7.9%,CN(NC(=O)c1ccccc1)C1=NS(=O)(=O)c2ccccc21
1.5%,COc1ccc(NC(=O)c2cc(S(=O)(=O)N3CCCCCC3)cn2C)c(OC)c1
-1.7%,CCN(CC(=O)Nc1sc2c(c1C#N)CCC(C)C2)Cc1nc2ccccc2c(=O)[nH]1 (stereo unspecified)
-0.5%,COc1ccc(-c2cc(C)no2)cc1S(=O)(=O)N1CC(C)Oc2ccccc21 (stereo unspecified)
-13.8%,COc1cccc(/C=C/C(=O)OCC(=O)c2cc(C)n(CC3CCCO3)c2C)c1OC (stereo unspecified)
-10.6%,Cc1cccc(N2CCN(C(=O)C3CCN(S(=O)(=O)N4CCOCC4)CC3)CC2)c1C
-12.5%,Cc1ccccc1NC1=NC(=S)N(c2ccccc2)C12CCOC(C)(C)C2 (stereo unspecified)
-11.6%,CC1=CC(C)(C)N2C(=O)C3(NCCc4c3[nH]c3ccccc43)c3cc(C)cc1c32 (stereo unspecified)
0.9%,CC(=O)c1sc(NC(=O)CN2C(=O)C3CC=CCC3C2=O)nc1-c1ccccc1 (stereo unspecified)
4.8%,CC(C)(C)NC(=O)NC(=O)CSc1nnc2ccccn12
2.4%,O=C(CSc1nnc(-c2ccncc2)n1Cc1ccco1)c1ccc(Cl)cc1
2.4%,COCCNC(=O)Cn1cc2c(n1)CCC(C)C2 (stereo unspecified)
-24.1%,O=C(CCc1ccccc1)NC(=S)Nc1ccccc1[N+](=O)[O-]
-7.9%,Cc1cc(C(=O)N/N=C/c2cn(C)nc2C)c2ccccc2n1
-2.4%,Cc1ccc(S(=O)(=O)NCC(=O)N(CC(=O)NC2CCCCC2)CC2CCCO2)cc1 (stereo unspecified)
-4.3%,COc1ccc(-c2nc(CC(=O)Nc3cccc(S(=O)(=O)NC4=NCCC4)c3)cs2)cc1
-5.5%,CSc1nnc(C)c(=O)n1COC(=O)c1ccc(S(=O)(=O)N2CCOCC2)cc1
-2.2%,CC(C)(C)OC(=O)NCCCCCNC(=O)c1[nH]cnc1C(=O)NC1CCN(C(=O)OC(C)(C)C)CC1
1.6%,O=C(Nc1ccc(Br)cc1F)C1CC(=O)N(C2CCCCC2)C1 (stereo unspecified)
-2.5%,O=C(OCc1nc2ccccc2s1)C1CCN(C2=NS(=O)(=O)c3ccccc32)CC1
-7.2%,COc1ccc(CCNC(=O)COc2ncnc3ccccc23)cc1
23.7%,CSc1cccc(NC(=O)Nc2ccc(Cl)cc2)c1
-5.0%,CC(=O)N1CCc2c(sc(NC(=O)CCS(=O)(=O)c3ccccc3)c2C(N)=O)C1
-4.2%,Cc1cccc(Cn2c(=O)n(CCCCC(=O)NCc3ccc4c(c3)OCO4)c(=O)c3ccccc32)c1
-10.2%,COc1cc(C(=O)OCC(=O)NC(=O)C2CCCCC2)ccc1OC(F)F
-0.4%,CCOC(=O)c1c(S(=O)(=O)NCc2ccco2)c(C)n(C)c1C
1.3%,CCOc1ccccc1Nc1nnc(SCC(=O)NCC2CCCO2)s1 (stereo unspecified)
-2.8%,O=C(NC1CCCCCC1)c1cc(S(=O)(=O)N2CCCCC2)ccc1N1CCOCC1

As entered above.
COc1ccc(CCNC(=O)COc2ncnc3ccccc23)cc1 – KAT2A inh: -7.2%
CC(=O)c1sc(NC(=O)CN2C(=O)C3CC=CCC3C2=O)nc1-c1ccccc1 (stereo unspecified) – KAT2A inh: 0.9%
CSc1nnc(C)c(=O)n1COC(=O)c1ccc(S(=O)(=O)N2CCOCC2)cc1 – KAT2A inh: -5.5%
COc1cc(C(=O)OCC(=O)NC(=O)C2CCCCC2)ccc1OC(F)F – KAT2A inh: -10.2%
Cc1cccc(N2CCN(C(=O)C3CCN(S(=O)(=O)N4CCOCC4)CC3)CC2)c1C – KAT2A inh: -10.6%
COc1ccc(-c2cc(C)no2)cc1S(=O)(=O)N1CC(C)Oc2ccccc21 (stereo unspecified) – KAT2A inh: -0.5%
CCOC(=O)c1c(S(=O)(=O)NCc2ccco2)c(C)n(C)c1C – KAT2A inh: -0.4%

3 structures out of the list, ordered by SMILES length, highest first:
KAT2A inh,Structure
-1.6%,CCN(CC)S(=O)(=O)c1ccc(NC(=O)COC(=O)CCc2cc(OC)c(OC)c(OC)c2)cc1
-5.5%,CSc1nnc(C)c(=O)n1COC(=O)c1ccc(S(=O)(=O)N2CCOCC2)cc1
1.6%,O=C(Nc1ccc(Br)cc1F)C1CC(=O)N(C2CCCCC2)C1 (stereo unspecified)

(next part)
KAT2A inh,Structure
-1.8%,CNc1c(NS(=O)(=O)c2cc(NC(C)=O)ccc2C)c(=O)oc2ccccc12
-26.7%,O=C(NC(=S)Nc1cc(Cl)ccc1N1CCOCC1)c1ccccc1[N+](=O)[O-]
-1.9%,CCOC(=O)CCNCc1ccc(F)cc1
-4.7%,COc1ccccc1NC(=O)CCn1cnc2ccccc2c1=O
-1.2%,O=C(O)c1cc(NC2(c3ccccc3)C(=O)c3ccccc3C2=O)ccc1Cl
2.5%,Cc1nnc(NC(=O)CN2CCN(Cc3ccccc3Cl)CC2)s1
2.7%,COc1ccc(-c2csc(NC(=O)C3CCCCN3S(=O)(=O)c3ccccc3)n2)cc1 (stereo unspecified)
-7.5%,CCOC(=O)N1CCN(C(=S)NC(=O)c2c(-c3c(Cl)cccc3Cl)noc2C)CC1
-7.7%,COc1ccc(C(=O)/C=C/c2cn(CC(O)CN3CCCCCC3)c3ccccc23)cc1OC (stereo unspecified)
-1.0%,O=C(COC(=O)c1ccc(S(=O)(=O)N2CCOCC2)cc1)Nc1ccccc1F
-3.3%,O=C(NCCCN1CCCCC1)C1CC(=O)N(CCc2ccccc2)C1 (stereo unspecified)
-4.4%,Cc1ccc(S(=O)(=O)N(C)C)cc1NC(=O)COC(=O)CCNS(=O)(=O)c1ccccc1
-6.2%,COc1ccc(C(CNS(=O)(=O)c2cccc(F)c2)N2CCCC2)cc1 (stereo unspecified)
-2.8%,CC(Oc1ccc(Cl)cc1)C(=O)Nc1ccccc1C(=O)N1CCOCC1 (stereo unspecified)
-0.1%,O=C(CSc1ncccn1)N1CCN(Cc2ccccc2)CC1
2.7%,O=C(COc1ccc(Cl)cc1)NNC(=O)c1ccc(=O)[nH]c1
-0.7%,O=C(NC(=O)N1CCCCC1)c1ccc(Cl)cc1
0.8%,COc1ccccc1CC(=O)N1CCCC1
-7.3%,O=C(Nc1ccccc1)C(O)C(O)C(=O)Nc1ccccc1 (stereo unspecified)
-2.5%,COc1ccccc1NC(=O)COc1cc(Br)c(CNCCCN2CCOCC2)cc1OC
-0.2%,Cc1nc2nc(SCc3nc4ccccc4[nH]3)[nH]c2cc1Br
-3.4%,Cc1cccc(C)c1OCc1cc(C(=O)N2CCC[C@H]2C(N)=O)no1
-11.1%,COc1ccc(S(=O)(=O)Cc2ccc(C(=O)NCCCN3CCc4ccccc4C3)o2)cc1
-4.7%,CCCc1c(C(=O)OCC)[nH]c2c1C(=O)CCC2
-0.3%,CCc1ccc(N2C(=O)CN(Cc3ccc(OC)c(OC)c3)C2=S)cc1
-20.9%,Oc1c(C(c2ccccc2F)N2CCC3(CC2)OCCO3)sc2nc(-c3ccco3)nn12 (stereo unspecified)
2.9%,CC(=O)OCC(=O)[C@@]1(O)CC[C@H]2[C@@H]3CCC4=CC(=O)C=C[C@]4(C)[C@H]3[C@@H](O)C[C@@]21C
28.0%,Cc1ccc(C(=O)N/C(=C/c2cccc([N+](=O)[O-])c2)C(=O)NC(C)C)cc1
-7.4%,COc1ccc(NC(=S)Nc2ccc3nccnc3c2)cc1
-1.4%,Cc1nn(CC(=O)Nc2ccncc2)c(C)c1[N+](=O)[O-]
0.5%,COC(=O)c1ccc(NC(=O)CSc2nnnn2C2CCCCC2)cc1
-0.8%,CCCN(CC1CCCO1)C(=O)CCc1nnc(-c2cc(C)on2)o1 (stereo unspecified)
-3.6%,CCOC(=O)C1(CCc2ccccc2)CCN(C(=O)CN2C(=O)CSC2=O)CC1
3.2%,COc1cc(CN2CCCC(N3CCc4ccccc4C3)C2)c(Cl)cc1O (stereo unspecified)
-12.6%,O=C(CN(Cc1ccccc1)S(=O)(=O)c1ccc2c(c1)OCCO2)Nc1ccc2c(c1)OCCO2
-1.0%&6.1%,CCOC(=O)c1nc(Nc2ccccc2C)c2ccccc2n1
-6.4%,O=C(OCC1CCCO1)c1ccc2c(c1)N(Cc1ccccc1)C(=O)c1ccccc1S2(=O)=O (stereo unspecified)
-1.2%,CCOCCOCCC(C(=O)OCC)P(=O)(c1ccccc1)c1ccccc1 (stereo unspecified)
0.9%,CCC(NC(=O)Nc1cccc(C)c1)c1c(-n2cccc2)sc2c1CCN(C)C2 (stereo unspecified)
-7.6%,COc1ccc(C2=C(c3ccc([N+](=O)[O-])cc3)C(=O)OC2)cc1
-0.1%,CCc1ccccc1N(CC(=O)N1CCN(c2ccccc2)CC1)S(C)(=O)=O
-6.9%,O=CNCC(=O)NCCc1ccc(Cl)cc1
2.8%,CC1CCN(S(=O)(=O)c2ccc(Br)s2)CC1
-10.0%,CC(=O)OC(C(=O)NCc1ccc2c(c1)OCO2)c1ccccc1Cl (stereo unspecified)
-20.1%,Cc1sc2nc(SCC(=O)c3cc(C)n(CC4CCCO4)c3C)n(C(C)C)c(=O)c2c1C (stereo unspecified)
-5.3%,C/C(=N\NC(=O)c1cc(-c2ccc(Cl)s2)[nH]n1)c1ccncc1
2.8%,COc1ccc(NC(=O)N/C=C/c2ccccc2)cc1
-3.7%,C=CCn1c(SCc2nc3c(c(=O)[nH]c(=O)n3CCCC)n2CCC)nnc1-c1ccccc1
-10.4%,CCc1ccc(NC(=O)c2ccc(F)c(S(=O)(=O)NCC3COc4ccccc4O3)c2)cc1 (stereo unspecified)
3.6%,S=C(NCc1ccco1)Nc1ccc(Cl)cc1Cl

Later entries
KAT2A inh,Structure
-6.0%,O=[N+]([O-])c1ccc(Cl)c(S(=O)(=O)Nc2ccc3cn[nH]c3c2)c1
-1.1%,O=C(COc1ccc(Br)cc1)OCCN1CCCCC1
-4.7%,Cc1ccc(SCC(=O)OCC(=O)NCCC2=CCCCC2)cc1
-10.2%&-21.4%,COC(=O)c1cc(S(=O)(=O)N2CCN(c3cccc(C)c3)C(C)C2)c[nH]1 (stereo unspecified)
-15.0%,Cc1ccc(C(C)C)c(Oc2nnnn2-c2ccccc2)c1
-7.7%,O=C(NCc1ccc2c(c1)CCN2C(=O)c1ccc(Cl)cc1)c1ccco1
-15.4%,Cc1cccc(CCNC(=O)C2CCN(S(=O)(=O)N3CCOCC3)CC2)c1
-7.2%,CC(=O)Nc1ccc(C(=O)COC(=O)C2CC2C)c(F)c1 (stereo unspecified)
-15.0%,COc1ccc(C(=O)N(C)C2CCCCC2)cc1OC1CCN(C(C)C)CC1
-2.1%,CC(C)CO/C(=N/S(=O)(=O)c1ccccc1)c1ccccc1
-10.6%,CCN1CCN(C(c2cccnc2)c2cc(Cl)c3cccnc3c2O)CC1 (stereo unspecified)
-5.1%,Cc1occc1C(=O)N/N=C/C=C/c1ccccc1
-6.4%,COc1cc(C2C(C(=O)/C=C/c3ccccc3)=C(O)C(=O)N2c2ccccn2)ccc1O (stereo unspecified)
11.3%,O=C(c1cccnc1)N1CCC(Oc2ccc(C(=O)N3CCCC(O)C3)cc2)CC1 (stereo unspecified)
-15.0%,Cc1ccc(S(=O)(=O)Oc2ccc(/C=N/N=C3/NC(=O)C(CC(=O)O)S3)cc2)cc1[N+](=O)[O-] (stereo unspecified)
?,Cc1cn[nH]c1
0.0%,COc1ccc(CCNC(=O)C(=O)NCCCN2CCOCC2)cc1

Screening results: PubChem BioAssay, National Center for Advancing Translational Sciences (NCATS)

Only part of the results is shown, and most or all hits are left out here.
